# MBNL1 CUG block – qHTS Assay for Inhibitors of MBNL1-poly(CUG) RNA binding; TR-FRET MBNL1-His/biotin-(CUG)12 binding, 665/545 ratio; Potency, µM (top dose mostly 57.5 µM), for inactives: at the top dose activity change, negative = inhibition, most hits filed as inhibitors; Muscleblind-like protein 1 (Homo sapiens), Q9NR56; 280,000 compounds, 0.036% hits; active means well fitted inhibition curve with a large enough effect in the signal ratio, with a control signal flat, not every such curve was filed as active; inconclusive means small, poorly fitted or top-dose-only effect, or effect the other way, or a change in a side signal; inactive means no such curve, though single readings can be large or run the other way; the % refers to the signal ratio; further: potency means the concentration at half of the fitted maximal effect; on the % scale 0 is the no-effect control and ±100 the full control effect
# Target sequence (Q9NR56 whole entry, looked up): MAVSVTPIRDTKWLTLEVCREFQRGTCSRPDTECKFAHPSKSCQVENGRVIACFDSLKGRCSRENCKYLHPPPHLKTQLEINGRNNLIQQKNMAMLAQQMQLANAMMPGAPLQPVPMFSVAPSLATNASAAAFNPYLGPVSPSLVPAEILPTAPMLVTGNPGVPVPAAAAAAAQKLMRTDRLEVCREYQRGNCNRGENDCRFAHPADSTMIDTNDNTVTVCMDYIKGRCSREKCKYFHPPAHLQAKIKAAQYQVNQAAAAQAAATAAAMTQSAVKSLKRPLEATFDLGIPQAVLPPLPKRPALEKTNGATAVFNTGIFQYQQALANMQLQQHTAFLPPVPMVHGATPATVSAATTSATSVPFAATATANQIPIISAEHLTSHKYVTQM
#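 His-tagged MBNL1 binding to biotinylated (CUG)12 RNA was measured by TR-FRET using terbium anti-His antibody (0.055 ng/ul final) and streptavidin-XL665 (5 nM final). Compounds were titrated 92 nM to 58 uM; 60 min at room temperature.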
# BCR signal inh – qHTS Assay to Find Inhibitors of Chronic Active B-Cell Receptor Signaling | ABC-DLBCL IkBa-CBG/CBR reporter, luminescence ratio, 4 h | 340,000 compounds, 0.05% hits | Potency, µM (titrated, usually from 46.1 µM), without a hit: at the top dose ratio change, negative = lower green/red ratio, actives largely listed as inhibitors; active means well fitted inhibition curve with a large enough effect in the signal ratio, with a control signal flat, not every such curve was filed as active; inconclusive means small, poorly fitted or top-dose-only effect, or effect the other way, or a change in a side signal; the % refers to the signal ratio;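 further: potency means the concentration at half of the fitted maximal effect; plate controls were basal doxycycline-induced cells for no effect and cells given 10 µM MG132 for full effect; MG132 reads +100%, hits lower the ratio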
#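 Compounds up to 46 uM were incubated four hours with TMD8 cells whose green CBG68 luciferase is fused to IkappaBalpha; red CBR luminescence normalised the signal, and concentration-effect curves were fitted to fusion, red and ratio data.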
# hERG WT inh – qHTS for Inhibitors of KCHN2 3.1: Wildtype qHTS | Voltage-gated inwardly rectifying potassium channel KCNH2 (Homo sapiens), Q12809 | U2OS, BacMam KCNH2, thallium flux FluxOr; stronger effect = lower value | activity change, % at 1.84 µM | 340,000 compounds, 0.37% hits;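 active means maximum activity change below -70%; inconclusive means maximum activity change between -70% and -50%; inactive means maximum activity change above -50%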; further: on the % scale 0 is the no-effect control and ±100 the full control effect
#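 U2OS cells were transduced with wild-type KCNH2 virus (2.03 x 10^8 / mL) for 4 h at room temperature, then cultured overnight at 37 C. Thallium flux was read with FluxOr dye. Rate constants were normalized to DMSO controls.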
# PKM2 activator – qHTS Assay for Activators of Human Muscle isoform 2 Pyruvate Kinase; Pyruvate kinase PKM (Homo sapiens), P14618; purified PKM2, Kinase-Glo ATP luminescence, activation; response scale: 0% is enzyme alone, no compound; Potency, µM (highest dose often 57.5 µM), for inactives: top-dose activation, hits mostly activators; 260,000 compounds, 0.34% hits; further: potency means the concentration at half of the fitted maximal effect; on the % scale 0 is the no-effect control and ±100 the full control effect; nearly all actives have a fitted effect of over 55% in size
# Target sequence (P14618 whole entry, looked up, canonical isoform): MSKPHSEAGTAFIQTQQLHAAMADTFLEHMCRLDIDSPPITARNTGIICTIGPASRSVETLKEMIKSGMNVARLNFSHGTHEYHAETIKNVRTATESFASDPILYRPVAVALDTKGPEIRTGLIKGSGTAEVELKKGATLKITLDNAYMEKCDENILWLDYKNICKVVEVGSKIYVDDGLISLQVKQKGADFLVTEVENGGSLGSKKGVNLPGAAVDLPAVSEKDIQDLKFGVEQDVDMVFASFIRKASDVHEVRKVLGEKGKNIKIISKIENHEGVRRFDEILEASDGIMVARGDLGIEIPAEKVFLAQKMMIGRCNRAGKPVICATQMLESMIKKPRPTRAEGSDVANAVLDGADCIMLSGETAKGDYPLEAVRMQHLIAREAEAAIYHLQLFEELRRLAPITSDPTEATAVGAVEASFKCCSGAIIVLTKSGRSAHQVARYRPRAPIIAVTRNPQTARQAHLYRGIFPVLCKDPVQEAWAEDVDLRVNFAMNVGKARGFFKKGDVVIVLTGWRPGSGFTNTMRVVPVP
#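 Purified hPK-M2 (>95% pure) converted ADP (0.1 mM final) to ATP with 0.5 mM PEP in 50 mM imidazole pH7.2, KCl, MgCl2, Tween 20, BSA; 1 h at room temperature. ATP detected by Kinase-Glo luminescence.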
# USP2a inh – qHTS Assay for Inhibitors of Ubiquitin-specific Protease USP2a Using CHOP2 as the Reporter. Ubiquitin carboxyl-terminal hydrolase 2 (Homo sapiens), O75604. USP2 core, Ub-CHOP2 coupled fluorogenic reporter, 485/531. Potency, µM (doses to about 38.3 µM), without a hit: at the top dose activity change, negative = inhibition, actives largely listed as inhibitors. 330,000 compounds, 0.01% hits;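 further: potency means the concentration at half of the fitted maximal effect; plate controls were DMSO wells for no effect and full inhibition by NEM control for full effect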
#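 USP2 core (10nM final) preincubated 30min RT with compound in 20mM Tris-HCl pH 8.0, 2mM CaCl2, 2mM beta-mercaptoethanol, 0.05% CHAPS; 25nM Ub-CHOP2 plus 25nM reporter substrate added, fluorescence (Ex485/Em531) read after 60min.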
# Mito fusion yeast – qHTS Assay for Small Molecule Inhibitors of Mitochondrial Division or Activators of Mitochondrial Fusion; S. cerevisiae fusion-defective mutant growth rescue, CellTiterGlo 48 h; Potency, µM (titrated, usually from 46.1 µM), without a hit: at the top dose growth rescue (activation), actives largely listed as activators; 320,000 compounds, 0.23% hits;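 further: potency means the concentration at half of the fitted maximal effect; % of control where 0% means no effect; nearly all actives have a fitted effect of over 45% in size; temperature-sensitive fusion mutants such as fzo1-1 at 37 °C on non-fermentable ethanol glycerol medium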
#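 Temperature-sensitive fusion-defective S. cerevisiae (e.g. fzo1-1, mgm1-5) were grown with compound in YPEG medium (3% ethanol, 3% glycerol) for 48 hours at 37C. Growth rescue was measured as viability by CellTiterGlo luminescence after 10 minutes at ambient.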
# GALK inhibitor – qHTS Assay for Inhibitors of Human Galactokinase (GALK). P51570. Purified GALK, Kinase-Glo residual ATP luminescence. Potency, µM (top dose mostly 57.5 µM), without a hit: at the highest dose activity change, negative = inhibition, most hits filed as inhibitors. 270,000 compounds, 0.007% hits; further: potency means the concentration at half of the fitted maximal effect; on the % scale 0 is the no-effect control and ±100 the full control effect
#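 GALK at 5 nM final was combined with compound, 35 uM ATP and 100 uM galactose in HEPES pH8.0 with MgCl2 and DTT. The reaction ran one hour at room temperature before luminescent ATP detection.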
# ASM inhibitor – Inhibitors of Secretory Acid Sphingomyelinase (S-ASM): qHTS; placental ASM, HMU-PC fluorogenic substrate, 60 min; Potency, µM (top dose mostly 57.5 µM), for the others: at the highest dose activity change, negative = inhibition, actives largely listed as inhibitors; 340,000 compounds, 0.006% hits; AID 504937, 2011; further: potency means the concentration at half of the fitted maximal effect
#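 Fluorescence read-out (Ex 386 nm, Em 447 nm) after stopping the reaction at pH 10. Enzyme: ASM from human placenta; substrate HMU-PC0, 9 uM final; 60 min, 37 °C. Compound preincubation 10 min, ambient temperature.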
# Eya2 phos inh – qHTS Assay for Inhibitors of the Phosphatase Activity of Eya2; recombinant Eya2, OMFP fluorescence dephosphorylation (OMFP is methylfluorescein phosphate); Potency, µM (series often up to 76.9 µM), for inactives: at the top dose activity, negative = inhibition, actives largely listed as inhibitors; 330,000 compounds, 0.006% hits; further: potency means the concentration at half of the fitted maximal effect; on the % scale 0 is the no-effect control and ±100 the full control effect
#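 Eya2 protein (added as 0.2 uM solution) was preincubated with compound for 10 min at ambient temperature in 50 mM HEPES pH 7.5, 50 mM NaCl, 5 uM MgCl2, 0.05% BSA, 1 mM DTT. OMFP (added at 50 uM) then reacted 10 min; fluorescence read at 485/525 nm.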
# TSHR antagonist – Antagonists of the Thyroid Stimulating Hormone Receptor: HTS campaign. Thyrotropin receptor (Homo sapiens), P16473. TSHR-expressing cells, TSH-stimulated cAMP HTRF, 2 h; stronger effect = lower value. activity change, negative = inhibition, % at 11.5 µM. 330,000 compounds, 0.2% hits;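 active means activity change below a set negative limit, meaning inhibition stronger than a set level, cut at about -70% in these data; inconclusive means activity change between two set negative limits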; further: on the % scale 0 is the no-effect control and ±100 the full control effect
#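 Antagonism was scored as loss of TSH-driven cAMP in TSHR cells, stimulated with 4nM TSH (EC80) for 2 hours at 37 deg C and detected by homogeneous HTRF competition immunoassay.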
# * marks the source's active call; other numbers are inactive results; ? = inconclusive; nt = not tested or not shown; [ ] = dose if it differs, or a comment. Unless noted, the call rests on the fitted dose curve; in most records, active means well fitted curve in the direction sought with a large enough effect; inconclusive means small, poorly fitted or top-dose-only effect, or another doubt; inactive means no such curve, though single readings can be large; an effect the other way counts as inactive or inconclusive.
mol	Mito fusion yeast	GALK inhibitor	MBNL1 CUG block	hERG WT inh	ASM inhibitor	TSHR antagonist	BCR signal inh	USP2a inh	PKM2 activator	Eya2 phos inh
CCOC(=O)C1=C(C)Nc2nnnn2C1c1cccnc1 (stereo unspecified)	0.1%	-1.7%	7.1%	0.1	-1.2%	0.0	-5.0%	-0.1%	-1.3%	14.7%
COc1ccc(CNCCC(c2ccc(F)cc2)c2ccc(OC(C)C)cc2)cc1OC (stereo unspecified)	-47.1%[inhibitor]	-2.0%	-6.5%	-36.6	-7.4%	8.3	?	1.9%	-15.3%	-18.2%
CC1CCN(S(=O)(=O)c2cn(CC(=O)Nc3cccc(C#N)c3)cn2)CC1	?	-3.4%	-3.0%	-10.6	-0.1%	-9.5	-1.6%	0.3%	nt	9.5%
COc1ccc(C(=O)Nc2ccc(C(=O)Nc3cccnc3)cc2)cc1	-0.2%	-6.2%	0.9%	2.0	-7.2%	-4.8	-1.1%	1.4%	0.4%	14.6%
O=C(O)CCCC(=O)N1N=C(c2ccco2)CC1c1ccco1 (stereo unspecified)	3.1%	-12.1%	15.7%	-6.6	1.6%	19.2	0.4%	-1.1%	-4.8%[11.5 µM]	-6.4%
CSc1nc(-c2ccccc2)nc2c1COC(C)(C)C2	1.5%	2.8%	-11.0%	7.6	-2.6%	-9.0	-0.7%	-2.6%	-14.0%	1.4%
O=c1[nH]nc(Cc2ccc(-c3ccccc3Cl)o2)c2ccccc12	-4.7%	-0.1%	?	9.9	-2.4%	-9.8	?	0.5%	-12.2%	17.4%
CC(Oc1ccc(-c2ccccc2)c(F)c1)c1ccn(S(=O)(=O)c2ccc(Cl)cc2)n1 (stereo unspecified)	3.1%	-1.3%	-4.9%	-0.9	-3.6%	10.5	22.3%	0.5%	0.4%	1.1%
CCN(Cc1ccccc1)C(=O)c1cc2cc(OC)c(OC)cc2[nH]1	4.8%	3.7%	9.2%	-9.3	1.3%	9.1	-8.3%	-0.2%	nt	-2.8%
S=C(Nc1cccc(Cl)c1)Nc1ccc2c(c1)OCCO2	-8.3%	0.0%	1.8%	3.1	-5.4%	3.5	-3.1%	2.2%	0.6%	16.1%
CC(Oc1ccc(-c2ccccc2)c(F)c1)c1ccn(S(=O)(=O)c2cccc3ccccc23)n1 (stereo unspecified)	1.5%	0.6%	3.6%	8.9	2.2%	0.4	?	-1.9%	0.5%	-1.7%
O=C1CC(c2cccc(Br)c2)C2=C(CCCC2=O)N1 (stereo unspecified)	-1.3%	-0.4%	-2.5%	-1.7	200.6%[activator]	27.7	3.4%	2.3%	-2.9%	3.8%
Cc1ccc(-c2nc3ccccc3c(=O)n2Cc2ccccc2)cc1	18.5%	-0.3%	3.9%	2.0	-11.6%	10.6	-4.3%	2.1%	6.6%	-2.9%
O=C(CC1C(=O)NCCN1Cc1ccc(F)cc1)NCCN1CCCc2ccccc21 (stereo unspecified)	-1.0%	1.6%	3.9%	nt	7.7%	7.2	-5.2%	-3.0%	7.1%	3.1%
O=C(NCc1ccccc1)c1ccc(CN2CCC(Cc3ccccc3)CC2)cc1	16.0%	-3.4%	?	17.7	-1.8%	21.4	-0.1%	-9.2%	nt	-6.9%
O=C(NCCc1ccccc1)c1ccc(OCCOc2ccccc2)cc1	1.3%	-0.1%	-7.1%	-6.8	-0.1%	18.4	-2.9%	1.8%	-5.9%	-4.9%
Clc1ccc(Cl)c(OCc2cc(-c3ccccc3Cl)on2)c1	-1.5%	-2.2%	-0.2%	-0.1	-0.3%	-16.5	8.0%	0.5%	0.8%	?
CC(O)c1nc2ccccc2n1CCCc1ccccc1 (stereo unspecified)	-6.7%	1.4%	-0.9%	21.8	9.7%	18.2	-1.2%	1.9%	1.8%	-11.1%

# Gathered by group, those above containing sulfur.
mol	Mito fusion yeast	GALK inhibitor	MBNL1 CUG block	hERG WT inh	ASM inhibitor	TSHR antagonist	BCR signal inh	USP2a inh	PKM2 activator	Eya2 phos inh
CC1CCN(S(=O)(=O)c2cn(CC(=O)Nc3cccc(C#N)c3)cn2)CC1	?	-3.4%	-3.0%	-10.6	-0.1%	-9.5	-1.6%	0.3%	nt	9.5%
CSc1nc(-c2ccccc2)nc2c1COC(C)(C)C2	1.5%	2.8%	-11.0%	7.6	-2.6%	-9.0	-0.7%	-2.6%	-14.0%	1.4%
CC(Oc1ccc(-c2ccccc2)c(F)c1)c1ccn(S(=O)(=O)c2ccc(Cl)cc2)n1 (stereo unspecified)	3.1%	-1.3%	-4.9%	-0.9	-3.6%	10.5	22.3%	0.5%	0.4%	1.1%
S=C(Nc1cccc(Cl)c1)Nc1ccc2c(c1)OCCO2	-8.3%	0.0%	1.8%	3.1	-5.4%	3.5	-3.1%	2.2%	0.6%	16.1%
CC(Oc1ccc(-c2ccccc2)c(F)c1)c1ccn(S(=O)(=O)c2cccc3ccccc23)n1 (stereo unspecified)	1.5%	0.6%	3.6%	8.9	2.2%	0.4	?	-1.9%	0.5%	-1.7%

# Compound activity: PubChem BioAssay, National Center for Advancing Translational Sciences (NCATS)

# These rows are one share of the data. The share of hits here may be higher or lower than overall.
